Source: PubChem
miR-21 FLuc: raises the signal of a miR-21 reporter; HeLa miR-21 FLuc reporter, luciferase, 48 h; 340,000 tested, under 10 active; Potency, µM (series often up to 38.3 µM), for inactives: at the top dose reporter change, positive = more light; AID 2288; active = well fitted rising curve with a large enough effect; inconclusive = small, poorly fitted or top-dose-only effect; inactive = no such curve, though single readings can be large or run the other way;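 further: % of control where 0% means no effect; miR-21 action dims this reporter so a rising signal means less miR-21 action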
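Compounds were titrated across several concentrations (up to approximately 40 uM) and incubated 48 hours with HeLa miR-21-FLuc reporter cells (miR-21 target sequence downstream of FLuc, endogenous miR-21). Readout was firefly luciferase luminescence after lytic detection reagent.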
GLA inh pH 4.5: blocks human alpha-galactosidase A at pH 4.5 | P06280 | purified enzyme, 4-MU-alpha-Gal fluorescence, pH 4.5 | activity change, negative = inhibition, % at 105 µM | 230,000 tested, under 10 active; inconclusive = small, poorly fitted or top-dose-only inhibition, or a rising curve; inactive = flat fitted curve, though single readings scatter; no compound was filed as active;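 further: 0% = full activity with enzyme and -100% = basal without enzyme; dose as in the result columns while the protocol names 77 µM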
Rango dissoc inh: inhibitors of RanGTP-induced Rango-importin beta complex dissociation; hit rate 0.071% among 340,000; Potency, µM (series often up to 46.1 µM), inactives show at the top dose activity change, negative = inhibition; O95149+P62826; Biochemical FRET Rango-importin beta, RanGTP-induced dissociation; active means falling FRET ratio curve, often poorly fitted, with flat reads before Ran was added; inconclusive means other falling curves, or compound fluorescence or quenching; inactive means flat or rising ratio curve;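 further: potency means the concentration at half of the fitted maximal effect; % of control where 0% means no effect; nearly all actives have a fitted effect of over 45% in size; -100% = wells without RanGTP and RCC1; the record marks most hits as doubtful in a second field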
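Rango/importin beta premix (0.1/0.25 uM final), PBS + 1 mM DTT + 0.02% Tween-20 + 0.1% BSA; cpd 5 min RT; FRET pre-read; + RanGTP-RCC1 (0.6 uM Ran, 2 mM GTP, 0.2 uM RCC1); 45 min RT; FRET post-read, ex 430, em 486/530 nm.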
Rango-impB inh: Rango-importin beta binding inhibition. AID 540263. Q14974. Potency, µM (top dose mostly 92.2 µM), without a hit: at the top dose inhibition of complex formation. Rango CFP/YFP FRET sensor + importin beta, 45 min. hit rate 0.031% among 340,000; active = rising FRET ratio curve, often small or poorly fitted; inconclusive = mostly compound fluorescence or quenching in the first reads; inactive = flat curves in all reads;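 further: potency means the concentration at half of the fitted maximal effect; 0% = DMSO wells and 100% = buffer wells lacking importin beta; nearly all actives have a fitted effect of over 15% in size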
Target sequence (Q14974 whole entry, looked up): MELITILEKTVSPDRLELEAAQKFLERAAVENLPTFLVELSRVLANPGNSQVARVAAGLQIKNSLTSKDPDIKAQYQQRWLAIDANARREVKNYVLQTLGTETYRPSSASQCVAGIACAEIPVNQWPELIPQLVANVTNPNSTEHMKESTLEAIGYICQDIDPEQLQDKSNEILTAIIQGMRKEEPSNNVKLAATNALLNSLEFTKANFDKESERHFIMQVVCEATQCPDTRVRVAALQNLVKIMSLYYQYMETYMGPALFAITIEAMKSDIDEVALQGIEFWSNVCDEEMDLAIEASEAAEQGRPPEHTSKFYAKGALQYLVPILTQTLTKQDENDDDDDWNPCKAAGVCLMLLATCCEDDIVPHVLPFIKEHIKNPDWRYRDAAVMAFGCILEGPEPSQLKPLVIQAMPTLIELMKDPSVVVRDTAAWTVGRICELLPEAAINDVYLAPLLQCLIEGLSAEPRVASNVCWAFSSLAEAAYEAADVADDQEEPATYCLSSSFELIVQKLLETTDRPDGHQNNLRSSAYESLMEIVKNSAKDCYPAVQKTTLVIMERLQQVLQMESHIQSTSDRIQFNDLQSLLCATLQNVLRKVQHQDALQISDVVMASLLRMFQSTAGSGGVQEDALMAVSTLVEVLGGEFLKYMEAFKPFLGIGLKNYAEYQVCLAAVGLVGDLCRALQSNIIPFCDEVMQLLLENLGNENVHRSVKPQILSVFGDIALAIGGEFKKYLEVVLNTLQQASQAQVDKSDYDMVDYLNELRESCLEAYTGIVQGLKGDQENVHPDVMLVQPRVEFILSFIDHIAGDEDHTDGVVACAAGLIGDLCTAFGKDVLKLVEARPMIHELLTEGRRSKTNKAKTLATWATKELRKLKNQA
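FRET biosensor (snurportin 1 IBB flanked by EYFP and cerulean), 50 nM, with compound 5 min, then 0.125 microM importin beta in PBS, 1 mM DTT, 0.02% Tween-20, 0.1% BSA. CFP/YFP ratio read after 45 min at room temperature; pre-read flags interference.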
Numbers without * were called inactive; ? = inconclusive; . = not tested or not shown; & = joins results of further samples. This is a subset; the hit share may differ from the screen's.

Each structure is followed by: GLA inh pH 4.5, Rango-impB inh, miR-21 FLuc, Rango dissoc inh
COc1cccc(CC2(CO)CCN(Cc3ccc4cccc(F)c4n3)CC2)c1
  -26, -3.7%, -5%, 22%
COc1ccc(N2CC(C(=O)N[C@@H](C)C(=O)N3CCCCC3)CC2=O)cc1 (stereo partly specified)
  ., 0.7%, -2%, -10%
O=C(CCc1nc2ccccc2c(=O)[nH]1)Nc1cc(C(F)(F)F)ccc1N1CCCC1
  ., 0.0%, ., -3%
COc1ccc(S(=O)(=O)N2CCN(CCO)CC2)cc1-c1nnc2c3ccccc3c(C)nn12
  -6, -0.7%, -13%, -1%
Cc1cc(NC(=O)CSc2ccc3nnc(CCNS(=O)(=O)c4ccccc4)n3n2)no1
  -3, 0.0%, -1%, 11%
Cc1ccc(N(C(=O)C(F)(F)F)C(C(=O)NC2CCCCC2)c2cccs2)cc1C (stereo unspecified)
  7, -1.4%, 1%, -1%
O=C(C1CCCN1S(=O)(=O)c1ccc(Br)cc1)N1CCOCC1 (stereo unspecified)
  1, -1.4%, 0%, -11%
Cc1cc(C)nc(N2CCC(C(=O)Nc3nnc(C)s3)CC2)n1
  -2, 0.3%, -1%, -13%
COc1ccc(CCNC(=O)c2ccc(Cl)c(S(=O)(=O)N(C)c3ccccc3)c2)cc1
  7, -0.5%, 18%, -11%
C=CCN1C(=O)CS/C1=C(\C#N)S(=O)(=O)c1ccc(C)cc1
  -3, -1.1%, -4%, -10%
NC(=O)COC(=O)c1sc2cc(F)ccc2c1Cl
  5, -3.4%, -1%, -1%
CCSc1nc(N)nc2c1ncn2C1OC(CO)C(O)C1O (stereo unspecified)
  ., 0.3%, ., -14%
O/N=C1\CCc2cc(Cl)ccc21
  1, -0.8%, -1%, -3%
CSc1cccc(-n2cc(-c3ccc4c(c3)OCO4)[nH]c2=O)c1
  3, -3.0%, -6%, 2%
Cc1ccc(C(=O)N2CCCC(c3nc4c(nnn4Cc4ccccc4)c(=O)[nH]3)C2)cc1 (stereo unspecified)
  -4, -2.3%, -18%, -7%
CCOc1ccc(-c2nc(CSCC(=O)NCCN3CCOCC3)c(C)o2)cc1
  -9, -0.3%, 17%, 17%
Cc1nc(NCCN2CCOCC2)c2nnn(Cc3c(F)cccc3Cl)c2n1
  -8, -0.8%, 1%, 14%
CC(C)OC(=O)CSc1nnc(C2CCCCC2)n1N
  -1, -2.1%, -2%, 15%
O=S(=O)(c1ccc(F)c(F)c1)N1CCN(S(=O)(=O)c2cccs2)CC1
  ., 0.3%, 0%, -9%
CCOC(=O)c1cn(CC)c2cc(N3CCCCC3)c(F)cc2c1=O
  ., 5.0%, ., -14%
Cc1cccc(NC(=O)C2CCCN(C(=O)Nc3ccc(F)cc3)C2)c1C (stereo unspecified)
  ., ?, 0%, 11%
CCOC(=O)N1CCN(C(=O)COc2ccc(S(=O)(=O)NCc3ccccc3)cc2)CC1
  2, -0.6%, 1%, -15%
COC(=O)CC(c1ccc(C#N)cc1)n1c(C)ccc1C (stereo unspecified)
  -4, 0.1%, 0%, -7%
CCOC(=O)c1[nH]c2ccccc2c1NC(=O)c1cc(OC)c(OC)c(OC)c1
  ., 0.6%, ., 0%
Fc1ccc(CNC(=S)Nc2ccccc2F)cc1
  ., -0.2%, -3%, 12%
Cc1cccc(N2CCN(C(=O)c3cccc(S(=O)(=O)N4CCCCC4)c3)CC2)c1C
  ., -2.1%, ., -5%
CCc1ccc(CN(C(=O)c2oc3ccccc3c2C)C2CCS(=O)(=O)C2)cc1 (stereo unspecified)
  ., 1.1%, 9%, 0%
COc1cc(C(c2sc3ncnn3c2O)N2CCN(c3ccccc3F)CC2)cc(OC)c1OC (stereo unspecified)
  -6, 0.4%, -5%, -9%
COc1ccc(OCC(=O)Nc2ccc3c(c2)C(=O)NC3=O)cc1
  ., 4.9%, 1%, 1%
CCCCOc1ccc(-c2nc(/C=N/c3nccs3)c(O)o2)cc1
  0, ?, -14%, -12%
Cc1cccc(N2CCN(C(=O)C34CC5CC(CC(C5)C3)C4)CC2)c1C
  -11, 5.7%, -8%, -4%
COc1cc(C(=S)N2CCOCC2)ccc1OC(=O)/C=C/c1ccco1
  9, -0.1%, 6%, 2%
CC(C)(CNCC(O)c1ccccc1)N1CCOCC1 (stereo unspecified)
  -23, 2.8%, -3%, -6%
CCNC(=S)N/N=C/c1sccc1C
  1, ., -9%, .
O=C(CNC(=O)c1cccs1)OCC(=O)c1ccc(Cl)cc1
  2, -3.5%, -4%, 0%
Cc1cc(C)nc(SCC2COc3ccccc3O2)n1 (stereo unspecified)
  6, 4.2%, -47%, 1%
CCOC(=O)c1ccc(NC(=O)NCCc2ccccc2OC)cc1
  7, -3.5%, 1%, -14%
Cc1c(-c2ccccc2)nc2ccccc2c1C(=O)NCc1cccs1
  1, 3.5%, -2%, 4%
O=C(Nc1ccc2c(c1)OCO2)C1CCN(S(=O)(=O)Cc2ccccc2)CC1
  -5, -2.9%, -4%, -10%
O=C(CSc1nnc2ccccn12)NC(=O)c1ccccc1
  ., -1.4%, ., 18%
O=C(Nc1ccccc1C1CC1)c1cccs1
  1, 4.5%, 0%, -7%
CC(=O)Nc1cccc(O)c1
  0, -1.6%, ., -2%
CCc1ccc(Nc2nnc(SCC(=O)NC(=O)CN3CCCC3=O)s2)cc1
  ., -1.5%, ., 9%
O=C(COC(=O)C1CC2CCCC(C1)C2=O)Nc1ccc(F)c(Cl)c1 (stereo unspecified)
  ., ?, ., 1%
CC(C(=O)Nc1ccncc1)(c1ccccc1)c1ccccc1
  6, 1.0%, 0%, -12%
O=C(CCc1nnc(Cc2ccc(-c3ccccc3)cc2)o1)NCC1CC1
  2, 3.6%, 0%, 10%
CCC(=O)n1nc(-c2ccc(OC)cc2)nc1NCc1cccs1
  -3, 0.2%, -26%, -14%
Cc1cccc(C)c1NC(=O)CS(=O)CC(=O)Nc1ccc(N2CCOCC2)cc1 (stereo unspecified)
  ., 2.9%, -5%, -3%
Cc1csc(NC(=O)CSc2nc3ccccc3c3c2CCCC3)n1
  -8, -0.9%, -7%, -2%
CCOc1ccc(NC(=O)CN(C)C(=O)CCCOc2ccc(Br)cc2)cc1OCC
  ., 0.1%, ., -17%
Cc1ccc(CN2C(=O)C(=O)c3cc(C)ccc32)cc1
  ., 5.4%, ., -11%
CS(=O)(=O)N(Cc1ccccc1)c1ccccc1C(=O)O
  2, 0.2%, -2%, 1%
O=C(Cc1ccc(Br)cc1)NCCN1CCOCC1
  ., -0.9%, 0%, -5%
CCOC(=O)COc1cccc2c(=O)n(CC(=O)NCc3ccc(F)cc3)ccc12
  12, -1.2%, 20%, 5%
COC(=O)c1cc(S(=O)(=O)NCC2CCN(Cc3cc(C)ccc3C)CC2)c[nH]1
  ., 0.2%, 1%&0%, 8%
Cc1ccc(NC(=O)CN2C(=O)C3C4C=CC(C4)C3C2=O)cc1 (stereo unspecified)
  13, -2.5%, -18%, 1%
O=C(/C=C/c1ccccc1)NCCN1CCOCC1
  3, 3.0%, -10%, 2%
CCC1=NN(C(=O)c2ccc(Br)cc2)C(O)(c2ccc(C)cc2)C1 (stereo unspecified)
  -8, -3.8%, -33%, 0%
CCOC(=O)c1nn(-c2ccccc2C)c2nc(-c3ccc(Cl)cc3)c(C#N)c(=O)n12
  -1, -2.8%, -12%, 1%
C=CC[C@@H](CC(=O)NCCO)C(=O)N[C@@H](COC(=O)[C@@H](CC=C)Cc1ccc(F)cc1)Cc1ccccc1
  ., ?, ., 9%

The list goes on.
Each structure is followed by: GLA inh pH 4.5, Rango-impB inh, miR-21 FLuc, Rango dissoc inh
O=C(Nc1ccc(Br)cc1F)C1CCCN(S(=O)(=O)c2cnc[nH]2)C1 (stereo unspecified)
  0, -1.0%, 1%, 19%
COC(=O)c1cc(C(=O)c2ccc(Cl)cc2)n2c(=O)/c(=C\N(C)C)sc12
  0, ?, 0%, -10%
O=C(c1ccccc1)N1CCCC(C(=O)N2CCCCC2)C1 (stereo unspecified)
  ., 0.3%, -1%, -26%
Cc1ccc(S(=O)(=O)N2CCN(Cc3ccco3)CC2)c(C)c1
  ., -1.3%, 0%, 14%
Cc1ccc(CNC(=O)CS(=O)Cc2nc(-c3cccs3)oc2C)cc1 (stereo unspecified)
  -5, -0.4%, -5%, ?
COCCN1C(=O)/C(=C/c2cc3c(cc2Br)OCO3)NC1=S
  -13, ?, -1%, ?
COc1cc2oc(-c3ccc(O)cc3)cc(=O)c2c(OC)c1O
  -13, ?, -32%, -20%
CCn1c(SCC(=O)Nc2ccccc2Br)nnc1-c1cnccn1
  ., 0.0%, -5%, 2%
Cc1nc2sccn2c(=O)c1Br
  -9, 8.7%, -3%, -7%
COc1ccc(NC(=O)CN(c2ccc(C(C)C)cc2)S(=O)(=O)c2c(C)noc2C)cc1OC
  4, 1.6%, -4%, -6%
C=CC[C@@H](CC(=O)N[C@@H](CO)Cc1ccccc1)C(=O)N[C@H](COC(=O)[C@@H](CC=C)CC(=O)OC(C)(C)C)Cc1ccccc1
  ., -1.0%, ., -14%
CCCCC(CC)CNC(=O)C1CCCN(S(=O)(=O)c2cnc[nH]2)C1 (stereo unspecified)
  -1, 1.7%, 0%, -11%
Cc1cc(NC(=O)CSc2nc3c(c(=O)n2-c2ccc(Br)cc2)SCC3)no1
  -7, 0.5%, -5%, -6%
O=C(NC(=O)N1CCCc2ccccc21)c1ccccc1
  -3, 1.2%, 4%, 4%
CCc1c(C)sc(NC(=O)c2cccs2)c1C#N
  2, ?, -86%, ?
O=C(CSc1nc2cc(Cl)ccc2o1)c1cccs1
  4, -0.4%, -25%, 3%
O=C(OCC(CO)OC(CO)n1ccc(=O)[nH]c1=O)c1ccccc1 (stereo unspecified)
  6, -1.7%, -5%, 12%
O=C(CCN1C(=O)c2ccccc2C1=O)N1CCC(c2ccccc2)C1 (stereo unspecified)
  -10, -5.9%, -13%, 10%
Cc1cc(C2=NNC(=NC3CC3)SC2)c(C)n1-c1c(C)n(C)n(-c2ccccc2)c1=O
  -5, -2.2%, 3%, -1%
Cc1nn(C)cc1S(=O)(=O)Nc1ccc2c(c1)OCCO2
  4, -3.4%, -21%, 2%
Cc1ccc(C(=O)NC(=S)Nc2cccc3nsnc23)cc1
  ., -0.3%, -38%, -9%
COc1ccc(NC(=O)CCl)cn1
  -1, ., 18%, .
CCN(CC)C(=O)c1sc(NC(=O)c2ccc(OC)c([N+](=O)[O-])c2)c(C#N)c1C
  -9, ., -6%, .
COC(=O)c1cc(S(=O)(=O)NCCN2CCOCC2)cn1C
  ., 1.4%, 4%, 35%
Cc1nc(-c2ccc(F)cc2)c(CC(=O)Nc2cccc(S(=O)(=O)N3CCOCC3)c2)s1
  ., 3.3%, ., -5%
COc1cccc(NC(=O)CN(C)C(=O)/C=C/c2cn(Cc3ccccc3)nc2-c2cccnc2)c1
  ., -2.4%, ., 1%
CCN1CCCC1CNC(=O)Cn1nc(C)n2c(cc3cc(F)ccc32)c1=O (stereo unspecified)
  ., -0.3%, -6%, 15%
Nc1nnc(SCCCC(=O)c2ccccc2)s1
  -2, -0.2%, -33%, -2%
CC(C)c1nnc(SCC(=O)NC(C)(C)C)n1C
  3, 1.1%, -2%, 4%
CCOC(=O)c1cc(-c2ccccc2)sc1NC(=O)C(C)C
  8, 6.7%, -3%, 2%
CC(C)Cc1nc(SCC(=O)NCC2CCCO2)c2c(=O)n(C)c(=O)n(C)c2n1 (stereo unspecified)
  ., 0.1%, -5%, 0%
COC(=O)c1ccc(=O)c2nc3/c(=C/O)c(O)cc(=O)c3[nH]c12
  -26, ?, 7%, -4%
CC(C)(C)n1ncc2c(=O)n(CC(=O)N3CCCC3)cnc21
  8, -0.3%, -9%, 2%
O=C(CSc1ncccn1)N1CCCc2ccccc21
  -4, -0.8%, -22%, ?

A draw from above in order of number of heavy atoms, low to high.
Each structure is followed by: GLA inh pH 4.5, Rango-impB inh, miR-21 FLuc, Rango dissoc inh
CC(C)c1nnc(SCC(=O)NC(C)(C)C)n1C
  3, 1.1%, -2%, 4%
CC(C)(C)n1ncc2c(=O)n(CC(=O)N3CCCC3)cnc21
  8, -0.3%, -9%, 2%
CC(C)Cc1nc(SCC(=O)NCC2CCCO2)c2c(=O)n(C)c(=O)n(C)c2n1 (stereo unspecified)
  ., 0.1%, -5%, 0%
